Vaccinia stage: Vaccinia orthopox stage-specific inhibition. AID 1053133. activity change (mCherry), % (concentration not given with the values). actives 0.01% (n = 89,000). Vaccinia-infected cells, mCherry/Venus stage reporter fluorescence; stronger effect = lower value; some inactives read as strong as hits;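 active = mCherry past -33% and 40 or more points under the early reporter, replicates agreeing; inconclusive = past -33% without that gap or agreement; tested in A549 cells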;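 also: scaled between vehicle wells and reference inhibitor wells; 23 nL library stock went into each well; one replicate is shown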
Vaccinia stage Venus: also measured in Vaccinia stage; calls as there; activity change (Venus), %; measured here: Venus reporter, other viral stage;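 negative = less Venus signal; first of two replicates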
* marks the source's active call; other numbers are inactive results; ? = inconclusive; / = not tested or not shown; & = joins results of further samples.

SMILES | Vaccinia stage | Vaccinia stage Venus
Cc1noc(C)c1NC(=O)Nc1ccc2c(c1)C(=O)N([C@@H](C)CO)C[C@@H](C)[C@@H](CN(C)S(=O)(=O)c1ccc(Cl)cc1)O2 | 0.4 | 6.5
C[C@H](CO)N1C[C@H](C)[C@H](CN(C)Cc2ccccc2F)Oc2ncc(C#CCN(C)C)cc2C1=O | 32.2 | 8.5
O=C(C[C@H]1CC[C@H]2[C@@H](COC[C@@H](O)CN2Cc2nccs2)O1)NCc1ccccc1Cl | -1.7 | 6.0
CCCN1C[C@H](C)[C@H](OC)CN(C)C(=O)c2ccc(NC(=O)c3ccccc3)cc2OC[C@@H]1C | 4.2 | 6.1
C[C@H](CO)N1C[C@H](C)[C@@H](CN(C)S(=O)(=O)c2cn(C)cn2)OCCCC[C@H](C)Oc2ccc(NC(=O)CCCCCC(=O)Nc3ccccc3N)cc2C1=O | 20.3 | -1.8
CCCC#Cc1cnc2c(c1)C(=O)N([C@H](C)CO)C[C@H](C)[C@@H](CN(C)C(=O)NC1CCCC1)O2 | 20.6 | 8.7
COc1ccc(NC(=O)Nc2ccc3c(c2)C(=O)N([C@@H](C)CO)C[C@@H](C)[C@@H](CN(C)C(=O)C2CCCCC2)OCCCC[C@H](C)O3)cc1 | 11.6 | 7.5
C[C@H]1CN([C@@H](C)CO)C(=O)c2cc(C#Cc3ccc(F)cc3)cnc2O[C@@H]1CN(C)CC1CCOCC1 | -34.3 | -17.7
CN1CCN(C(=O)C[C@H]2CC[C@H]3[C@@H](COC[C@@H](O)CN3S(=O)(=O)c3cccc(F)c3)O2)CC1 | 19.4 | 4.4
C[C@H](CO)N1C[C@H](C)[C@H](CN(C)Cc2ccccc2)Oc2c(NC(=O)c3ccncc3)cccc2C1=O | 10.6 | 3.5
O=C(C[C@@H]1C=C[C@@H](NC(=O)CN2CCOCC2)[C@@H](CO)O1)NCCc1ccncc1 | -0.6 | -4.6
CCCNC(=O)Nc1ccc2c(c1)C(=O)N(C)C[C@@H](OC)[C@@H](C)CN(C(=O)C1CCC1)[C@H](C)CO2 | -7.8 | -5.2
C[C@H]1CN([C@@H](C)CO)C(=O)CCCn2cc(nn2)CO[C@@H]1CN(C)C(=O)Nc1cccc(C(F)(F)F)c1 | 4.9&5.3 | 7.6&1.6
O=C(C1=C[C@@H](c2ccccc2)C[C@@H](OCCCCO)O1)N1CCOCC1 | 13.3 | 13.2
C[C@H]1CN([C@@H](C)CO)C(=O)c2cccc(NC(=O)Nc3cccc4ccccc34)c2O[C@@H]1CN(C)C(=O)Nc1ccccc1 | 2.0 | 6.1
COc1ccc(NC(=O)N2CCCCN3[C@@H](CO)[C@H](c4ccc(C#Cc5ccccn5)cc4)[C@@H]3C2)cc1 | 17.1 | 8.5
C[C@@H]1CN([C@@H](C)CO)C(=O)c2cc(NC(=O)Cc3ccccc3)ccc2O[C@H]1CN(C)C(=O)Nc1ccc(F)cc1 | 29.7 | 15.2
COc1ccccc1-c1cnc2c(c1)C(=O)N([C@@H](C)CO)C[C@@H](C)[C@@H](CN(C)C(=O)c1ccncc1)O2 | -1.2 | -5.0
C[C@H]1CN([C@@H](C)CO)C(=O)Cc2cc(NC(=O)Nc3ccccc3)ccc2O[C@@H]1CN(C)S(=O)(=O)c1cccs1 | 15.5 | 11.6
CCC(=O)N(C)C[C@H]1Oc2cc(-c3ccccc3)ccc2S(=O)(=O)N([C@H](C)CO)C[C@H]1C | 11.1 | -6.9
COc1ccccc1NC(=O)N1CC[C@@H]2[C@H]1c1cc(-c3ccc(F)cc3)ccc1N(C)[C@H]2CO | ? | /
O=C(c1cccnc1)N1CC(=O)N2[C@H](CO)[C@H](c3ccc(C#CCC4CCCC4)cc3)[C@H]2C1 | ? | /
Cc1ccccc1S(=O)(=O)N1CC[C@@H]2[C@@H](CO)N(C)c3ccc(-c4ccccc4)cc3[C@@H]21 | -33.5 | -37.2
O=C(C1=C[C@@H](C2CC2)C[C@@H](OCCCCO)O1)N1CCN(Cc2ccc3c(c2)OCO3)CC1 | 7.9 | 8.3
COCC(=O)NC[C@H]1[C@@H](c2ccc(-c3ccccc3)cc2)[C@@H](CO)N1C(C)=O | 18.0 | 10.5
Cc1ccc(S(=O)(=O)N(C)C[C@H]2OCCCC[C@H](C)Oc3ccc(NC(=O)c4ccncc4)cc3C(=O)N([C@H](C)CO)C[C@@H]2C)cc1 | -14.2 | -13.2
COCC(=O)Nc1ccc2c(c1)C(=O)N(C)[C@H]1CC[C@@H](CC(=O)NC3Cc4ccccc4C3)O[C@H]1CO2 | 3.1 | 5.7
CCCNC(=O)N1CC2(CCN(Cc3ccccn3)CC2)c2c(n(C)c3cc(OC)ccc23)[C@@H]1CO | -4.7 | -0.2
C[C@@H]1CN([C@H](C)CO)S(=O)(=O)c2ccc(C#CC3(O)CCCC3)cc2O[C@@H]1CN(C)C(=O)Cc1cccnc1 | 31.8 | 1.3
Cc1noc(C)c1NC(=O)N(C)C[C@@H]1Oc2ccc(NC(=O)Nc3ccc(F)cc3)cc2C(=O)N([C@H](C)CO)C[C@@H]1C | 1.8 | 8.6

Arranged by formula weight (largest number first): part of the list above
SMILES | Vaccinia stage | Vaccinia stage Venus
C[C@H]1CN([C@@H](C)CO)C(=O)Cc2cc(NC(=O)Nc3ccccc3)ccc2O[C@@H]1CN(C)S(=O)(=O)c1cccs1 | 15.5 | 11.6
C[C@@H]1CN([C@H](C)CO)S(=O)(=O)c2ccc(C#CC3(O)CCCC3)cc2O[C@@H]1CN(C)C(=O)Cc1cccnc1 | 31.8 | 1.3
COCC(=O)Nc1ccc2c(c1)C(=O)N(C)[C@H]1CC[C@@H](CC(=O)NC3Cc4ccccc4C3)O[C@H]1CO2 | 3.1 | 5.7
C[C@H](CO)N1C[C@H](C)[C@H](CN(C)Cc2ccccc2)Oc2c(NC(=O)c3ccncc3)cccc2C1=O | 10.6 | 3.5
COc1ccc(NC(=O)N2CCCCN3[C@@H](CO)[C@H](c4ccc(C#Cc5ccccn5)cc4)[C@@H]3C2)cc1 | 17.1 | 8.5
CN1CCN(C(=O)C[C@H]2CC[C@H]3[C@@H](COC[C@@H](O)CN3S(=O)(=O)c3cccc(F)c3)O2)CC1 | 19.4 | 4.4

(cont.)
SMILES | Vaccinia stage | Vaccinia stage Venus
CC(C)NC(=O)N[C@@H]1CC[C@@H](CC(=O)N2CCCCC2)O[C@@H]1CO | 9.6 | 4.9
COc1cccc(-c2ccc3c(c2)O[C@H](CN(C)C)[C@@H](C)CN([C@@H](C)CO)S3(=O)=O)c1 | -21.9 | -11.1
C[C@@H]1CN([C@@H](C)CO)C(=O)Cc2cc(NC(=O)C3CCCCC3)ccc2O[C@@H]1CN(C)Cc1ccc(C(=O)O)cc1 | 17.1 | 12.0
CO[C@H]1CN(C)C(=O)c2ccc(NC(C)=O)cc2OC[C@H](C)N(CC2CC2)C[C@H]1C | 3.3 | 0.9
O=C(C[C@H]1CC[C@H]2[C@@H](COC[C@@H](O)CN2S(=O)(=O)c2ccccc2F)O1)NCc1ccccc1F | 29.2 | 18.9
O=C(C[C@H]1C=C[C@@H](NC(=O)C2CCC2)[C@@H](CO)O1)NCc1ccccc1Cl | 1.6 | 0.2
C[C@@H]1CN([C@@H](C)CO)S(=O)(=O)c2ccc(C#CCN(C)C)cc2O[C@H]1CN(C)Cc1ccccc1F | ? | /
C[C@H](CO)N1C[C@H](C)[C@@H](CN(C)Cc2ccc(-c3ccccc3)cc2)Oc2c(NC(=O)c3ccc(-c4nccs4)cc3)cccc2C1=O | -29.0 | -21.2
COCC(=O)N1CC2(C1)[C@@H](c1ccccc1)[C@@H](CO)N2C(=O)NC1CCCC1 | 18.5 | 15.0
CCCC(=O)Nc1ccc2c(c1)C(=O)N(C)C[C@@H](OC)[C@@H](C)CN(Cc1ccccn1)[C@H](C)CO2 | 6.3 | 1.9
CCCC(=O)Nc1ccc2c(c1)C(=O)N(C)C[C@@H](OC)[C@@H](C)CN(CC1CCCC1)[C@@H](C)CO2 | 12.7 | 13.2
C[C@@H]1CN([C@@H](C)CO)C(=O)c2cc(NS(=O)(=O)c3cn(C)cn3)ccc2O[C@@H](C)CCCCO[C@@H]1CN(C)C(=O)C1CCCCC1 | 36.3 | 23.1
C[C@@H]1CCCCO[C@@H](CN(C)C(=O)C2CCCCC2)[C@@H](C)CN([C@H](C)CO)C(=O)c2cc(NS(=O)(=O)c3cccs3)ccc2O1 | ? | /
Cc1ccc(S(=O)(=O)N[C@H]2CC[C@@H](CC(=O)NCc3ccccc3F)O[C@@H]2CO)cc1 | -8.8 | -10.2
COc1cccc(S(=O)(=O)N(C)C[C@@H]2Oc3cc(C#CCN(C)C)ccc3S(=O)(=O)N([C@H](C)CO)C[C@@H]2C)c1 | 21.3&-7.7 | 5.1&-8.7
CO[C@@H]1CC[C@@H]2CCN(C)C(=O)C[C@@H](c3ccccc3)CN(C)C(=O)c3cccc(C#N)c3OC[C@@H]1O2 | 21.7 | 11.3
O=C(C[C@H]1CC[C@H]2[C@@H](COC[C@H](O)CN2S(=O)(=O)c2ccccc2)O1)NCCN1CCCC1 | 32.4 | 10.8
C[C@H](CO)N1C[C@H](C)[C@H](CN(C)Cc2ccc(Oc3ccccc3)cc2)Oc2c(NC(=O)Nc3ccc4c(c3)OCO4)cccc2C1=O | ? | /
CCC(=O)N1C[C@H](C)[C@H](OC)CN(C)C(=O)c2cc(NC(=O)c3ccccc3)ccc2OC[C@@H]1C | 1.1 | -1.1
C[C@H]1CN([C@@H](C)CO)C(=O)c2cc(C3=CCCC3)cnc2O[C@@H]1CN(C)C(=O)Nc1ccc(F)cc1 | 7.6 | -3.4
C[C@@H]1CN([C@H](C)CO)C(=O)c2cc(-c3ccncc3)cnc2O[C@H]1CN(C)C(=O)C1CCOCC1 | 13.9 | 4.7
C[C@@H]1CN([C@H](C)CO)S(=O)(=O)c2ccc(-c3cccnc3)cc2O[C@H]1CN(C)C(=O)c1cccc(F)c1 | 20.6 | 15.3
C[C@@H]1CN([C@H](C)CO)C(=O)c2cc(C#CCc3ccccc3)cnc2O[C@@H]1CN(C)Cc1cccc(F)c1 | -27.8 | -18.3
C[C@@H]1CN([C@H](C)CO)C(=O)CCCn2cc(nn2)CO[C@@H]1CN(C)C(=O)Nc1ccc(F)cc1 | 11.7 | 15.4
COc1ccc(NC(=O)N(C)C[C@@H]2Oc3ncc(C#CC(C)C)cc3C(=O)N([C@@H](C)CO)C[C@@H]2C)cc1 | 9.7 | 8.1
C[C@@H]1CCCCO[C@@H](CN(C)C(=O)c2ccccc2)[C@@H](C)CN([C@@H](C)CO)C(=O)c2cc(NC(=O)CCC(F)(F)F)ccc2O1 | 8.4 | -0.5
Cc1cccc(-c2ccc([C@H]3[C@@H](CO)N4C(=O)CN(C(=O)c5ccc6c(c5)OCO6)C[C@@H]34)cc2)c1 | -29.1 | -13.4
C[C@@H]1CN([C@@H](C)CO)C(=O)Cc2cc(NS(=O)(=O)c3ccccc3)ccc2O[C@H]1CN(C)Cc1ccc(Cl)c(Cl)c1 | ? | /
CC(=O)N1[C@@H]2Cn3c(ccc(-c4ccccc4)c3=O)[C@H]1[C@@H](C(=O)NCC1CC1)[C@@H]2CO | 0.9 | -3.7
CO[C@@H]1CN(C)C(=O)c2cc(NC(=O)NC3CCCCC3)ccc2OC[C@@H](C)N(CC2CC2)C[C@@H]1C | -28.9 | -21.6
O=C(C[C@H]1C=C[C@@H](NC(=O)c2ccncc2)[C@H](CO)O1)NCCc1ccncc1 | -2.5 | -0.3

Four records picked at random from those above:
SMILES | Vaccinia stage | Vaccinia stage Venus
C[C@H](CO)N1C[C@H](C)[C@H](CN(C)Cc2ccccc2)Oc2c(NC(=O)c3ccncc3)cccc2C1=O | 10.6 | 3.5
CCCC#Cc1cnc2c(c1)C(=O)N([C@H](C)CO)C[C@H](C)[C@@H](CN(C)C(=O)NC1CCCC1)O2 | 20.6 | 8.7
CC(C)NC(=O)N[C@@H]1CC[C@@H](CC(=O)N2CCCCC2)O[C@@H]1CO | 9.6 | 4.9
O=C(C1=C[C@@H](c2ccccc2)C[C@@H](OCCCCO)O1)N1CCOCC1 | 13.3 | 13.2

Assay outcomes: PubChem, Broad Institute

Only part of the results is shown; count on the stated rates, not on these rows.
